Mtb H37Rv = Mycobacterium tuberculosis H37Rv growth inhibition, cell based, confirmatory dose response (AID 1949); inhibition, % at 10 µg/mL; hits with a dose series show IC50 in µg/mL; most inactive calls were filed without a number and no value below 0 was filed; hit rate 1.6% among 100,000; M. tuberculosis H37Rv growth inhibition;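 active = confirmed in a dose series; inconclusive = about 50% or more but not retested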;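 note: bacteria grown 7 days with compound before Alamar blue readout; 0% = untreated bacteria and 100% = reference antibiotic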
* = called active by the depositor.

For COc1ccc(N(CC(=O)NC2CCCCCC2)S(=O)(=O)c2ccc(C)cc2)cc1OC the results were Mtb H37Rv inactive.
For COc1ccc(-c2coc3cc4oc(=O)cc(-c5ccc(OC)cc5)c4cc23)cc1 the results were Mtb H37Rv inactive.
COc1ccc(Cl)cc1N(CC(=O)Nc1cc(C)ccc1C)S(=O)(=O)c1ccccc1 was read as Mtb H37Rv inactive.
CC(=O)c1cccc(NC(=O)N2CCN(Cc3ccc(Cl)c(Cl)c3)CC2)c1 was read as Mtb H37Rv inactive.
Screening Cc1cc(NC(=O)c2cccc(OC(C)C)c2)no1 returned Mtb H37Rv 4%.
`COC(=O)C1CCCN1C(=O)C12CC3CC(CC(C3)C1)C2` (centres undefined) gave Mtb H37Rv inactive.
Cc1ccccc1C1CC(=O)NC(SCC(=O)N(c2ccccc2)c2ccccc2)=C1C#N (centres undefined) was read as Mtb H37Rv 9%.
Screening Cc1ccc(N2C(=O)CC(N3CCCCCC3)C2=O)cc1C (centres undefined) returned Mtb H37Rv inactive.
For COc1ccc(C)cc1NC(=S)NNC(=O)Cc1cccs1 the results were Mtb H37Rv inactive.
Screening CCCCOc1ccc(C(=O)NC(C)C2COc3ccccc3O2)cc1 (centres undefined) returned Mtb H37Rv inactive.
For O=C(Nc1cccc2c1CCCC2)c1ccco1 the results were Mtb H37Rv inactive.
COc1ccc(OC)c(NC(=O)C2=C(C)NC(=S)NC2c2cccs2)c1 (centres undefined) was read as Mtb H37Rv inactive.
CCn1c(Sc2c(-c3ccccc3)c3cc(Cl)ccc3[nH]c2=O)nc2ccccc2c1=O was read as Mtb H37Rv 5%.
Screening Cc1cc(C)c(S(=O)(=O)N2CCN=C2c2ccccc2)cc1C returned Mtb H37Rv inactive.
Screening COCCNC(=S)N1CCN(Cc2ccco2)CC1 returned Mtb H37Rv inactive.
Screening COc1ccc(S(=O)(=O)N2CCOCC2)cc1C(=O)Nc1nc2ccccc2s1 returned Mtb H37Rv inactive.
For CCOC(=O)c1c(NC(=O)Cc2ccc([N+](=O)[O-])cc2)sc2ccccc12 the results were Mtb H37Rv inactive.
Cc1nc2ccccc2n1CC(=O)N(c1ccccc1)C(C)C was read as Mtb H37Rv inactive.
Cc1cc2oc(C(=O)N(Cc3ccccc3Cl)C3CCS(=O)(=O)C3)c(C)c2cc1C (centres undefined) was read as Mtb H37Rv inactive.
CCc1nc2sc(C)c(C)c2c(=O)n1CCO was read as Mtb H37Rv inactive.
Screening CSc1nc2ccc(S(=O)(=O)Nc3ccc4c(c3)COC4=O)cc2s1 returned Mtb H37Rv inactive.
O=[N+]([O-])c1ccc(N2CCCC2)cc1NC1CC1 was read as Mtb H37Rv inactive.
`CN(CC(=O)Nc1ccc(Oc2ccccc2)cc1)S(=O)(=O)c1ccccc1` gave Mtb H37Rv inactive.
`CN(C)c1ccc(CNCCC2CCOC(C)(C)C2)cc1` (centres undefined) gave Mtb H37Rv inactive.
Screening COc1ccc(CCNC(=S)Nc2ccncc2)cc1OC returned Mtb H37Rv inactive.
`COC(=O)c1ccccc1NC(=O)NCCCn1cc(C)cn1` gave Mtb H37Rv inactive.
CCOc1ccc(N(CC(=O)Nc2ccc(F)cc2)S(=O)(=O)c2ccc(Cl)cc2)cc1 was read as Mtb H37Rv inactive.
For COc1cc(OC)c(/C=C2/C(=O)NC(=O)N(c3ccc(Cl)cc3)C2=O)c(OC)c1 the results were Mtb H37Rv inactive.
`CC1=CC(=C2C(=O)NC(=S)NC2=O)C=C(C(F)(F)F)N1Cc1ccccc1` gave Mtb H37Rv inconclusive.
`CCC(CC)C(=O)Nc1nc(-c2ccc(F)cc2)cs1` gave Mtb H37Rv inactive.

6 consecutive records from above, for reference:
Screening COc1ccc(CCNC(=S)Nc2ccncc2)cc1OC returned Mtb H37Rv inactive.
`COC(=O)c1ccccc1NC(=O)NCCCn1cc(C)cn1` gave Mtb H37Rv inactive.
CCOc1ccc(N(CC(=O)Nc2ccc(F)cc2)S(=O)(=O)c2ccc(Cl)cc2)cc1 was read as Mtb H37Rv inactive.
For COc1cc(OC)c(/C=C2/C(=O)NC(=O)N(c3ccc(Cl)cc3)C2=O)c(OC)c1 the results were Mtb H37Rv inactive.
`CC1=CC(=C2C(=O)NC(=S)NC2=O)C=C(C(F)(F)F)N1Cc1ccccc1` gave Mtb H37Rv inconclusive.
`CCC(CC)C(=O)Nc1nc(-c2ccc(F)cc2)cs1` gave Mtb H37Rv inactive.

(continued)
Screening C=CCN1C(=O)N(/C=C/C)c2cccc3cccc1c23 returned Mtb H37Rv inactive.
CC(C)c1ccc(CN(C(=O)c2ccc(F)cc2)C2CCS(=O)(=O)C2)cc1 (centres undefined) was read as Mtb H37Rv inactive.
Screening Nc1nnc2c([nH]c3ccccc32)c1-c1ccccc1 returned Mtb H37Rv inactive.
Cc1ccc(S(=O)(=O)Nc2ccc3nc(-c4cccn4C)[nH]c3c2)cc1 was read as Mtb H37Rv inactive.
Screening COc1ccc(NC(=O)CSc2nnc3c4c5c(sc4nc(-c4ccccc4)n23)CCC5)cc1 returned Mtb H37Rv inactive.
Screening O=C(NC(=S)Nc1ccc2oc(-c3cncc(Br)c3)nc2c1)c1cc2ccccc2o1 returned Mtb H37Rv inactive.
For COc1ccc2c(c1)c(=O)oc1cc(OCC(=O)NC3CCCCC3)ccc12 the results were Mtb H37Rv inactive.
Screening CCC1CCCCN1S(=O)(=O)c1ccc([N+](=O)[O-])cc1 (centres undefined) returned Mtb H37Rv 3%.
For Cc1ccc(C2CC(c3c(F)cccc3Cl)n3nc(N)nc3N2)cc1 (centres undefined) the results were Mtb H37Rv 8%.
Screening Cc1cccc(C(=O)NCc2nnc(SCC(=O)c3ccc(Br)cc3)n2C)c1 returned Mtb H37Rv inactive.
For Cc1ccc(CC(=O)NC(C)CCc2ccccc2)cc1 (centres undefined) the results were Mtb H37Rv 3%.
`CC(C)Oc1ccc(C(=O)Nc2ccc(F)c(Cl)c2)cc1` gave Mtb H37Rv inactive.
For O=C1C(Cl)=C(c2ccc(Cl)cc2)C(=O)N1c1ccc(Cl)cc1 the results were Mtb H37Rv inactive.
COc1cc(S(=O)(=O)Nc2ncn[nH]2)ccc1Cl was read as Mtb H37Rv inactive.
For Cn1c(-c2ccccc2)cnc1SCC(=O)NCc1ccco1 the results were Mtb H37Rv inactive.
For COc1ccc(S(=O)(=O)NCc2ccco2)cc1Cl the results were Mtb H37Rv inactive.
`COc1cccc(-c2nn(-c3ccccc3)cc2C(=O)Nc2ccc(I)cc2)c1` gave Mtb H37Rv 18%.
O=S(=O)(NCCCc1ccccc1)c1ccc(Cl)cc1 was read as Mtb H37Rv 14%.
`CC1(C)C(=O)N(CC(O)CNc2ccccc2)C(=O)N1CN1C(=O)N(CC(O)CNc2ccccc2)C(=O)C1(C)C` (centres undefined) gave Mtb H37Rv inactive.
COc1cc2c(cc1NC(=O)c1cncc(Br)c1)oc1ccccc12 was read as Mtb H37Rv inactive.
Screening COc1ccc(OC)c(Nc2nnc(-c3cc4ccccc4oc3=O)s2)c1 returned Mtb H37Rv inactive.
Screening CS(=O)(=O)N(CCc1ccccc1)CC(=O)N1CCN(c2ccccc2F)CC1 returned Mtb H37Rv inactive.
Screening Cc1cc(C)c2c(N)c(C(=O)c3ccc([N+](=O)[O-])cc3)sc2n1 returned Mtb H37Rv inactive.
`O=C(Nc1ccc(S(=O)(=O)NCCc2ccccc2)cc1)N1CCCCC1` gave Mtb H37Rv inactive.
Screening O=C(O)C(Cc1ccccc1)N1C(=O)c2cccc([N+](=O)[O-])c2C1=O (centres undefined) returned Mtb H37Rv 0%.
Screening COc1cc(C(=O)N2CCN(c3ccc(Cl)cc3)CC2)cc(OC)c1OC returned Mtb H37Rv inactive.
Cc1ccc(-c2cc(C(F)(F)F)n3nc(C(=O)Nn4cnnc4)cc3n2)cc1C was read as Mtb H37Rv 2%.
`CCOC(=O)c1c(NC(N)=O)sc(C)c1C` gave Mtb H37Rv inactive.
For COc1ccc(C)cc1NC(=O)CSc1n[nH]c(-c2ccc(Cl)cc2)n1 the results were Mtb H37Rv inconclusive.
`C=CCc1cc(OC)ccc1OCCOCCNCCN` gave Mtb H37Rv inactive.
Screening COC(=O)C1=C(C)NC(=S)NC1c1ccc(OC(=O)c2ccccc2)cc1 (centres undefined) returned Mtb H37Rv 2%.
Screening COC(=O)c1c(NC(=O)c2cccs2)sc(Cc2ccccc2)c1C returned Mtb H37Rv inactive.
COC(=O)c1ccc(OCC(=O)Nc2ccccc2F)cc1 was read as Mtb H37Rv 0.55µg/mL*.
`NC(=O)c1cc(-c2ccccn2)nc2ccc(Br)cc12` gave Mtb H37Rv inactive.
`S=C(NCCc1ccncc1)Nc1cccc2ccccc12` gave Mtb H37Rv inactive.
Screening CC(Sc1nc2ccccc2s1)C(=O)Nc1nnc(C(F)(F)F)s1 (centres undefined) returned Mtb H37Rv inactive.
For CC1CCN(S(=O)(=O)c2ccc(NC(=O)CN3CCOCC3)cc2)CC1 the results were Mtb H37Rv inactive.
`CCCCC(=O)N1CCN(c2cc(C)c(C(=O)CC)cc2F)CC1` gave Mtb H37Rv 7%.
For O=c1c2ccccc2nc(CN2CCOCC2)n1-c1ccccc1F the results were Mtb H37Rv 3%.
`CC(C(=O)N1CCC(C(N)=O)CC1)N(c1ccc(Oc2ccccc2)cc1)S(C)(=O)=O` (centres undefined) gave Mtb H37Rv inactive.

Reprinted at random: 2 compounds from above, in no set order.
Screening COC(=O)C1=C(C)NC(=S)NC1c1ccc(OC(=O)c2ccccc2)cc1 (centres undefined) returned Mtb H37Rv 2%.
COC(=O)c1ccc(OCC(=O)Nc2ccccc2F)cc1 was read as Mtb H37Rv 0.55µg/mL*.

The listing continues:
Screening Cc1nnc2sc(-c3ccc(NC(=O)c4ccc(-c5ccc(Br)cc5)o4)cc3)nn12 returned Mtb H37Rv 4%.
For COc1ccc(C)cc1NC(=O)C(C(C)C)N1C(=O)c2ccccc2C1=O (centres undefined) the results were Mtb H37Rv inactive.
Screening CC(Sc1nc(-c2ccccc2)c(C#N)c(=O)[nH]1)C(=O)Nc1ccc(Cl)cc1 (centres undefined) returned Mtb H37Rv 1%.
`CCOC(=O)c1sc(NC(=S)N2CCN(S(C)(=O)=O)CC2)c(C(=O)OCC)c1C` gave Mtb H37Rv inactive.
Screening CN1CCN(S(=O)(=O)c2ccc(NC(=O)c3ccc(F)cc3)cc2)CC1 returned Mtb H37Rv inactive.
CCOc1ccc(NC(=O)Nc2nn(Cc3ccc(F)cc3)cc2Br)cc1 was read as Mtb H37Rv inactive.
`COc1ccc(-n2c(CCc3ccccc3)nnc2SCC(=O)Nc2ccccc2F)cc1` gave Mtb H37Rv inactive.
CCn1c2ccccc2c2cc(CN3CCC(N4CC(C)OC(C)C4)CC3)ccc21 (centres undefined) was read as Mtb H37Rv 1%.
`CCCCc1ccc(NC(=O)COc2ccc(C(=O)Nc3ccccc3C)cc2)cc1` gave Mtb H37Rv inactive.
COc1ccc([N+](=O)[O-])cc1NC(=O)CCSc1ccc(Cl)cc1 was read as Mtb H37Rv inactive.
Screening CCN(C(=O)C1CCCO1)C1CCCCC1 (centres undefined) returned Mtb H37Rv inactive.
For Cc1nc(NS(=O)(=O)c2ccccc2)sc1NC(=O)Nc1ccccc1Cl the results were Mtb H37Rv inactive.
`O=[N+]([O-])c1cccc(NS(=O)(=O)c2cccc3cccnc23)c1` gave Mtb H37Rv inactive.
OCc1ccc(OCc2ccc(Cl)cc2Cl)c(Br)c1 was read as Mtb H37Rv inactive.
`COc1ccccc1NC(=O)CSc1nnnn1-c1c(C)cccc1C` gave Mtb H37Rv 2%.
Screening O=C(O)CCC(=O)N1N=C(c2ccccc2)CC1c1ccc2nccnc2c1 (centres undefined) returned Mtb H37Rv inactive.
Screening COc1ccccc1NC(=O)COc1nc(=O)[nH]n1-c1cccc(F)c1 returned Mtb H37Rv inactive.
CCn1c(SCC(=O)Nc2nccs2)nnc1-c1cccc(C)c1 was read as Mtb H37Rv inactive.
`Cc1sc2ncnc(SCC(=O)NCCc3ccccc3)c2c1C` gave Mtb H37Rv inactive.
`CCOc1cc(C#N)ccc1OCC(=O)NCc1ccco1` gave Mtb H37Rv inactive.
`CCOc1ccc(Br)cc1S(=O)(=O)N1CCN(c2ccc(C)c(Cl)c2)CC1` gave Mtb H37Rv inactive.
`COc1cccc(NC(=O)C(=S)N2CCCCC2)c1` gave Mtb H37Rv inactive.
`O=C(NCCN1CCCCC1)Nc1ccc(F)c(Cl)c1` gave Mtb H37Rv inactive.
`CCn1c(CNC(=O)Cc2ccc(OC)cc2)nnc1SCC(=O)Nc1nc(-c2ccc(C)cc2)cs1` gave Mtb H37Rv inactive.
`CC(=O)NCc1nc2ccccc2n1Cc1ccc(Cl)cc1` gave Mtb H37Rv 3%.
`N#CC1(c2ccc(NC(=O)c3ccc([N+](=O)[O-])cc3)cc2)CCCC1` gave Mtb H37Rv inactive.
For COc1cccc(OCc2cc(C3Nc4ccccc4C(=O)N3Cc3ccccc3)ccc2OC)c1 (centres undefined) the results were Mtb H37Rv 8%.
COCCCNC(=O)C1CCN(S(=O)(=O)c2ccc(F)cc2)CC1 was read as Mtb H37Rv inactive.
`COC(=O)Cc1c(C)c2ccc(O)cc2oc1=O` gave Mtb H37Rv inactive.
For CCOC(=O)N1CCN(S(=O)(=O)c2cc(F)ccc2OC)CC1 the results were Mtb H37Rv 2%.

Compounds from the list above with a CF3 group (three):
`CC1=CC(=C2C(=O)NC(=S)NC2=O)C=C(C(F)(F)F)N1Cc1ccccc1` gave Mtb H37Rv inconclusive.
Cc1ccc(-c2cc(C(F)(F)F)n3nc(C(=O)Nn4cnnc4)cc3n2)cc1C was read as Mtb H37Rv 2%.
Screening CC(Sc1nc2ccccc2s1)C(=O)Nc1nnc(C(F)(F)F)s1 (centres undefined) returned Mtb H37Rv inactive.

New compounds follow
`O=C(c1ccccc1F)N1CCN(C2CCCCCC2)CC1` gave Mtb H37Rv inactive.
For N#CC1=C(SCC(=O)Nc2nccs2)NC(=O)CC1c1cccs1 (centres undefined) the results were Mtb H37Rv inactive.
`Cc1occc1C(=O)Nc1ccc2c(c1)OCCO2` gave Mtb H37Rv inactive.
Screening CN(Cc1ccccc1)S(=O)(=O)c1ccc(OCC(=O)NC2CCCC2)cc1 returned Mtb H37Rv inactive.
`CCc1nc(N)c(C#N)c(-c2cccc3ccccc23)c1C` gave Mtb H37Rv inactive.
`COc1ccc(CCNC(=O)C2CCN(C(=O)c3ccc(C(C)(C)C)cc3)CC2)cc1OC` gave Mtb H37Rv inactive.

Some of the compounds tested; count on the stated rates, not on these rows.
